Vif TR-FRET – inhibitors of Vif binding to APOBEC3G peptide, primary screen, biochemical, TR-FRET, GST-Vif 1-94, biotin-A3G peptide, dose response retest (AID 1117319). TR-FRET GST-Vif / biotin-A3G peptide binding; higher % means a stronger effect; test concentration not given here; strong numbers were not always called active. inhibition, %; hits with a dose series show IC50 in µM. Virion infectivity factor (Human immunodeficiency virus type 1 group M subtype B (isolate …. 260,000 tested, 0.57% active;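 active = above the screen mean plus three standard deviations and confirmed in dose response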;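 note: Vif residues 1-94 fused to GST binding biotinylated APOBEC3G peptide 110-148; 0% = full assay without inhibitor and 100% = GST in place of GST-Vif; retest series ran down from 100 µM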
MLL AF4-AF9 inh – inhibitors of AF4 peptide binding to AF9, primary screen, biochemical, AlphaScreen, biotin-AF4 peptide, FLAG-AF9, single point | 350,000 tested, 0.47% active | inhibition, % at 10 µM | Protein AF-9 (Homo sapiens), P42568;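 active = every replicate reaching a set inhibition limit, whatever the replicate mean, cut at about 25% in these data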;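 note: 0% = plate neutral control median and 100% = total signal loss; the record names both 10 and 1 µM as test concentration; the first replicate is given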
Target sequence (P42568 whole entry, looked up): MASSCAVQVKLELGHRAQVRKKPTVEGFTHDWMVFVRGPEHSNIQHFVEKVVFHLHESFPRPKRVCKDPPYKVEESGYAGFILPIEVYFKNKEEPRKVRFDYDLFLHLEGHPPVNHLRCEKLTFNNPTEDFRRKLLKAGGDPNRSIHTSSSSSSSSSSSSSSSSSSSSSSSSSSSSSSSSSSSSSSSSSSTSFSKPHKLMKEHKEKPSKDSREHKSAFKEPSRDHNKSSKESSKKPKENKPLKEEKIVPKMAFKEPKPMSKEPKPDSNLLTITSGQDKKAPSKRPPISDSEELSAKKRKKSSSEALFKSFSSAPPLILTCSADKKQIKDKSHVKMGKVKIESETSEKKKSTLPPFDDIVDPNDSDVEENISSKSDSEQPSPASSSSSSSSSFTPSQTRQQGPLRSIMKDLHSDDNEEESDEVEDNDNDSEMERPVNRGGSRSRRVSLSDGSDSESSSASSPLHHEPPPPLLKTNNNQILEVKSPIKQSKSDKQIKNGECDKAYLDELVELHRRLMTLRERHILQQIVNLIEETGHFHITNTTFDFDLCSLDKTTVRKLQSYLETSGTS
Numbers without * were called inactive; & = joins results of further samples.

What do the screens show for `C[C@H](NC(=O)c1ccco1)C(=O)Nc1nc(-c2ccccn2)cs1`?
Vif TR-FRET: -6%; MLL AF4-AF9 inh: 0.5

Results for CC(C(=O)Nc1ccccc1C#N)N1C(=O)NC2(CCCCCC2)C1=O (centres undefined) ?
Vif TR-FRET: 9%; MLL AF4-AF9 inh: 4.3

Results for O=C1N[C@@H](c2ccccc2)COC(=O)[C@@H](Cc2ccc(F)cc2)CC/C=C/C[C@@H]1CC(=O)N(CCO)Cc1ccccc1 ?
Vif TR-FRET: 2%; MLL AF4-AF9 inh: -1.9

How did CCOC(=O)C1(CCC(=O)OCc2ccccc2)CCCCC1=O (centres undefined) do in these assays?
Vif TR-FRET: -13%; MLL AF4-AF9 inh: -3.2

What do the screens show for `O[C@H]1C[C@H](c2ccccc2)N(Cc2cccs2)C[C@@H]1n1cc(C2CC2)nn1`?
Vif TR-FRET: -3%; MLL AF4-AF9 inh: 2.9

How did COc1ccc([C@@H]2[C@@H](C)N(c3ccccc3)c3ccccc3C(=O)N2Cc2ccccc2)cc1 do in these assays?
Vif TR-FRET: 1%; MLL AF4-AF9 inh: 1.0

What do the screens show for `COCOCCn1cc(CN2CCS(=O)(=O)N(Cc3ccc(-c4ccccc4)cc3)C(CC(C)C)C2=O)nn1` (centres undefined)?
Vif TR-FRET: 4%; MLL AF4-AF9 inh: 3.3

What do the screens show for `CC12CCC(=O)C=C1CCC1C3CC(O)C(O)(C(=O)CO)C3(C)CC(O)C12F` (centres undefined)?
Vif TR-FRET: 0%; MLL AF4-AF9 inh: 1.8

How did COc1ccc(NC(=O)CN(C)CC(=O)NCC2CCCCC2)cc1 do in these assays?
Vif TR-FRET: 1%; MLL AF4-AF9 inh: -1.0

Results for CCCc1cc(C(=O)Nc2cccc(-c3nn[nH]n3)c2)sc1C ?
Vif TR-FRET: 4%; MLL AF4-AF9 inh: 1.9

How did CCC(=O)N(C)C[C@H]1Oc2cc(-c3ccccc3F)ccc2S(=O)(=O)N([C@H](C)CO)C[C@H]1C do in these assays?
Vif TR-FRET: 1%; MLL AF4-AF9 inh: 1.3&-2.9&0.3

What do the screens show for `COc1ccc(NC(=O)COC(=O)C2COc3ccccc3O2)cc1OC` (centres undefined)?
Vif TR-FRET: 7%; MLL AF4-AF9 inh: -4.0

What do the screens show for `Cc1ccc([C@@H]2CC(=O)[C@@H]3CN(S(=O)(=O)c4ccc(C)cc4)[C@H](c4ccc(Cl)cc4)C[C@@H]3N2S(=O)(=O)c2ccc(Cl)cc2)cc1`?
Vif TR-FRET: -1%; MLL AF4-AF9 inh: 1.3

What do the screens show for `C(=NN1CCCCCC1)c1ccc2c(c1)OCO2`?
Vif TR-FRET: 0%; MLL AF4-AF9 inh: 3.6

Results for COc1ccc(CNC(=O)CCNC(=O)c2ccco2)cc1OC ?
Vif TR-FRET: 3%; MLL AF4-AF9 inh: 0.3

Results for NC(=O)C1(Nc2ccc(-c3ccc(Br)cc3)cc2)CCCC1 ?
Vif TR-FRET: -5%; MLL AF4-AF9 inh: 8.4

How did CC(=NNC(=S)Nc1ccc(C)cc1)c1ccccn1 do in these assays?
Vif TR-FRET: -4%; MLL AF4-AF9 inh: 5.3

Results for Cc1noc(C)c1COc1ccc(C(=O)NCC(c2c(F)cccc2Cl)N(C)C)cc1 (centres undefined) ?
Vif TR-FRET: 5%; MLL AF4-AF9 inh: 2.3

Results for Cc1cc(F)ccc1S(=O)(=O)N1CCCOC1CNC(=O)C(=O)NCCc1ccco1 (centres undefined) ?
Vif TR-FRET: -7%; MLL AF4-AF9 inh: 0.4

What do the screens show for `Cc1ccc(-c2nn(-c3ccc(F)cc3)cc2C(=O)NCCCN2CCCC2=O)cc1`?
Vif TR-FRET: -7%; MLL AF4-AF9 inh: 1.1

How did CCCCN1C(=O)C(CC(=O)NC(c2ccccc2)c2ccccc2)CC(C(=O)N(C(C)C)C(C)C)=C1C (centres undefined) do in these assays?
Vif TR-FRET: -2%; MLL AF4-AF9 inh: 1.5

How did CCn1c(SCC(=O)NC2CC2)nnc1-c1ccccc1 do in these assays?
Vif TR-FRET: -2%; MLL AF4-AF9 inh: -2.3

What do the screens show for `O=C(Nc1ccc(NS(=O)(=O)c2ccccc2)c(Cl)c1)c1ccccc1`?
Vif TR-FRET: -1%; MLL AF4-AF9 inh: -1.5

What do the screens show for `O=C(CSc1n[nH]c(=O)n1CCc1ccccc1)NC1CCCC1`?
Vif TR-FRET: 3%; MLL AF4-AF9 inh: -1.3

How did CC(C)=CCC/C(C)=C/CNC(=O)C[C@H]1C[C@H](C(=O)N(C(C)C)C(C)C)[C@@]2(C)c3[nH]c4cc(CCC(=O)N(C)C)ccc4c3CCN2C1=O do in these assays?
Vif TR-FRET: -1%; MLL AF4-AF9 inh: 5.1

Results for C[C@@H]1CN([C@@H](C)CO)C(=O)CCCn2nncc2CO[C@@H]1CN(C)C(=O)Nc1cccc(C(F)(F)F)c1 ?
Vif TR-FRET: -1%; MLL AF4-AF9 inh: -4.0&-1.5

What do the screens show for `CCN1C(=O)[C@H]2[C@H]3CN=C(SCC4CC4)N3[C@@](CC)(C(=O)OC)[C@H]2C1=O`?
Vif TR-FRET: 6%; MLL AF4-AF9 inh: -1.1

How did O=C(CCc1ccccc1)N1CCN(C(=O)CCc2ccccc2)CC1 do in these assays?
Vif TR-FRET: -2%; MLL AF4-AF9 inh: -2.9

Results for O=C(NN=CC=Cc1ccccc1)C(O)C(O)C(=O)NN=CC=Cc1ccccc1 (centres undefined) ?
Vif TR-FRET: 9%; MLL AF4-AF9 inh: -6.0

What do the screens show for `CCOC(=O)CC(=O)Nc1cc2ccc(OC)c(OC)c2cc1C(=O)OCC`?
Vif TR-FRET: -2%; MLL AF4-AF9 inh: -2.6

Results for Oc1c(CN2CCOCC2)ccc(CN2CCOCC2)c1O ?
Vif TR-FRET: 31%; MLL AF4-AF9 inh: -1.3

Results for O=C(/C=C/c1ccccc1)Nc1cccc(C(=O)NCCc2ccccc2)c1 ?
Vif TR-FRET: -8%; MLL AF4-AF9 inh: -1.1

How did COC(=O)[C@@]1(Cc2ccccc2)[C@H]2C(=O)N(C)C(=O)[C@H]2[C@H]2CN=C(SCc3ccc(Cl)cc3)N21 do in these assays?
Vif TR-FRET: 1%; MLL AF4-AF9 inh: 2.1

How did Cc1ccc(C(=O)NCCc2nnc3ccc(SCC(=O)Nc4nnc(C)s4)nn23)cc1 do in these assays?
Vif TR-FRET: -6%; MLL AF4-AF9 inh: -2.4

Results for C[C@H](NC(=O)C1CCN(S(=O)(=O)c2ccccc2)CC1)C(=O)NCc1ccncc1 ?
Vif TR-FRET: 6%; MLL AF4-AF9 inh: -0.1

Results for COc1ccccc1C1OCC(C)([N+](=O)[O-])CO1 (centres undefined) ?
Vif TR-FRET: 0%; MLL AF4-AF9 inh: -7.6

How did CN(C(=O)c1ccc(NC(=O)Cc2ccc(NC(=O)C3CCN(C(=O)C4CC4)CC3)cc2)cc1)C1CCCC1 do in these assays?
Vif TR-FRET: 8%; MLL AF4-AF9 inh: 4.5

What do the screens show for `COc1cc(NC(=O)OCc2ccccc2)c2ncccc2c1`?
Vif TR-FRET: -2%; MLL AF4-AF9 inh: 0.1

What do the screens show for `COc1ccccc1NC(=O)N(C)C[C@@H]1OCc2cnnn2CCCC(=O)N([C@@H](C)CO)C[C@@H]1C`?
Vif TR-FRET: -3%; MLL AF4-AF9 inh: -5.6&-1.2

Results for CSc1cccc(NC(=O)C2CCCN(S(C)(=O)=O)C2)c1 (centres undefined) ?
Vif TR-FRET: -4%; MLL AF4-AF9 inh: 1.3

How did CCOc1cccc(CN2CCC(Oc3ccc(C(=O)N4CCCC4)cc3)CC2)c1O do in these assays?
Vif TR-FRET: 5%; MLL AF4-AF9 inh: 4.6

How did Cc1cc(C)c(C)c(C(=O)C(=O)c2ccccc2)c1 do in these assays?
Vif TR-FRET: -6%; MLL AF4-AF9 inh: -0.9

How did CCC[C@@H](CN1CCC[C@H]1CN1C(N)=NC[C@H]1C(C)C)N1C[C@@H]([C@H](C)CC)N(CCCC2CCCC2)C1=N do in these assays?
Vif TR-FRET: 0%; MLL AF4-AF9 inh: 4.7

How did O=C(O)c1ccc(N2C(=O)c3ccccc3C2=O)cc1[N+](=O)[O-] do in these assays?
Vif TR-FRET: 0%; MLL AF4-AF9 inh: -6.5

What do the screens show for `CC12CCCC(CC(=O)O)(C1)NC(=O)C2` (centres undefined)?
Vif TR-FRET: 3%; MLL AF4-AF9 inh: -3.1

How did Cc1ccc(C(=O)O)cc1S(=O)(=O)Nc1ccccc1C(=O)NC1CC1 do in these assays?
Vif TR-FRET: 2%; MLL AF4-AF9 inh: -19

Results for COc1ccc(NC(=O)C[C@H]2C(=O)N(c3ccc(OC)cc3)C[C@@H]2c2ccc(Br)cc2)cc1 ?
Vif TR-FRET: 0%; MLL AF4-AF9 inh: 0.7

What do the screens show for `CC(C)(CCc1ccccn1)C(=O)CCCc1ccccn1`?
Vif TR-FRET: -9%; MLL AF4-AF9 inh: 11

Results for O=C1CC=Nc2ccc([N+](=O)[O-])cc21 ?
Vif TR-FRET: 8%; MLL AF4-AF9 inh: 11

Results for O=C(O)C1C2CCCCC2=C2CCCCC2C1C(=O)Nc1nccs1 (centres undefined) ?
Vif TR-FRET: 2%; MLL AF4-AF9 inh: -0.1

What do the screens show for `O=C(O)CC1(C(=O)O)CCCC1`?
Vif TR-FRET: 2%; MLL AF4-AF9 inh: -2.2

What do the screens show for `C[C@H]1CN([C@@H](C)CO)C(=O)CCCn2nncc2CO[C@H]1CN(C)C(=O)C1CCCCC1`?
Vif TR-FRET: -6%; MLL AF4-AF9 inh: -0.3&-0.8

What do the screens show for `CCCC1CC(=O)NC1(C(=O)OCC)C(=O)OCC` (centres undefined)?
Vif TR-FRET: -2%; MLL AF4-AF9 inh: -1.2

How did COc1cc(/C=C/CNC[C@H]2O[C@@H](n3cc(C)c(=O)[nH]c3=O)C[C@@H]2O)ccc1O do in these assays?
Vif TR-FRET: 7%; MLL AF4-AF9 inh: 1.3

Results for CC1(C)N=C(N)N=C(N)N1c1ccc(OCC(=O)N2CCOCC2)c(Cl)c1 ?
Vif TR-FRET: -4%; MLL AF4-AF9 inh: -7.6

What do the screens show for `O=P(c1ccccc1)(c1ccccc1)c1ccccc1C(Br)Br`?
Vif TR-FRET: 2%; MLL AF4-AF9 inh: -0.2

What do the screens show for `COc1ccc([C@H]2N[C@]3(CCCN(CC4CCCCC4)C3=O)[C@H]3C(=O)N(Cc4ccccc4)C(=O)[C@@H]23)cc1`?
Vif TR-FRET: -2%; MLL AF4-AF9 inh: 1.5

How did O=S(=O)(/N=C(/Nc1nc2ccccc2s1)c1ccccc1)c1ccc(F)cc1 do in these assays?
Vif TR-FRET: 3%; MLL AF4-AF9 inh: -0.5

How did O=C(CCNC(=O)N1CC(=O)Nc2ccccc21)NCc1ccccc1 do in these assays?
Vif TR-FRET: -7%; MLL AF4-AF9 inh: -2.3

How did O=C(NCc1ccc(Cl)cc1)C1CCN(C(=O)c2ccc(Cl)cc2)CC1 do in these assays?
Vif TR-FRET: 3%; MLL AF4-AF9 inh: 1.2

Molecules from the list above with a COOH group (5):
How did O=C(O)c1ccc(N2C(=O)c3ccccc3C2=O)cc1[N+](=O)[O-] do in these assays?
Vif TR-FRET: 0%; MLL AF4-AF9 inh: -6.5

What do the screens show for `CC12CCCC(CC(=O)O)(C1)NC(=O)C2` (centres undefined)?
Vif TR-FRET: 3%; MLL AF4-AF9 inh: -3.1

How did Cc1ccc(C(=O)O)cc1S(=O)(=O)Nc1ccccc1C(=O)NC1CC1 do in these assays?
Vif TR-FRET: 2%; MLL AF4-AF9 inh: -19

Results for O=C(O)C1C2CCCCC2=C2CCCCC2C1C(=O)Nc1nccs1 (centres undefined) ?
Vif TR-FRET: 2%; MLL AF4-AF9 inh: -0.1

What do the screens show for `O=C(O)CC1(C(=O)O)CCCC1`?
Vif TR-FRET: 2%; MLL AF4-AF9 inh: -2.2

Continuation.
How did O=S1(=O)N[C@@H](CC2CCCCC2)COc2cc(Br)ccc21 do in these assays?
Vif TR-FRET: -2%; MLL AF4-AF9 inh: -2.7

How did O=C(NCC(c1ccco1)N1CCN(c2ccccc2)CC1)C1CCCCC1 (centres undefined) do in these assays?
Vif TR-FRET: 1%; MLL AF4-AF9 inh: 0.2

How did CCOc1ccc(CNC(=O)CN2C(=O)CSc3ccc(S(=O)(=O)N4CCOCC4)cc32)cc1 do in these assays?
Vif TR-FRET: -9%; MLL AF4-AF9 inh: 1.0

What do the screens show for `COc1ccc(CCNC(=O)c2ccccc2NC(=O)CN2CCN(c3ccccc3O)CC2)cc1`?
Vif TR-FRET: 9%; MLL AF4-AF9 inh: 1.0

Results for Cc1cc(C)c(S(=O)(=O)N(C)CC(=O)N2CCCC2)c(C)c1 ?
Vif TR-FRET: 2%; MLL AF4-AF9 inh: -6.6

Results for N/C(=N\N=Cc1ccc2c(c1)OCO2)NN=Cc1ccc2c(c1)OCO2 ?
Vif TR-FRET: -2%; MLL AF4-AF9 inh: 1.6

Results for CC(=O)NC[C@H]1O[C@@H](n2ccc(N)nc2=O)[C@H](O)[C@@H]1O ?
Vif TR-FRET: 3%; MLL AF4-AF9 inh: -5.6

What do the screens show for `C[C@@H]1CN([C@@H](C)CO)C(=O)CCCn2nncc2CO[C@@H]1CN(C)S(=O)(=O)c1cccs1`?
Vif TR-FRET: -10%; MLL AF4-AF9 inh: 0.5&0.4

How did ON(CCc1ccncc1)Cc1ccccc1 do in these assays?
Vif TR-FRET: -5%; MLL AF4-AF9 inh: -1.3

Results for O=C(COC(=O)c1cc(=O)[nH]c2ccccc12)NC1CCCCC1 ?
Vif TR-FRET: -6%; MLL AF4-AF9 inh: 0.5

Bioassay records as filed in PubChem.

Not all compounds are listed (hit frequency here may not be typical).
